GALR2 agonist = agonists of human galanin receptor 2 (GALR2) | O43603 | GALR2-expressing cells, agonist activation read-out | activation, %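 (tested at 5 µM)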 | 140,000 tested, 0.48% active | AID 803;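 active means above mean plus 3 SD of all compounds, about 5% in these data, not always enough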;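 further: 0% = vehicle buffer wells and 100% = reference agonist at full effect; tested in CHO reporter cells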
HSV augment = HSV replication enhancement | HSV replication augmentation in cells, fold increase | maximum fold increase | 220,000 tested, 0.005% active;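 active means peak rise of 1.5-fold or more in the series; inconclusive means self-fluorescent or not available for retest; tested in PC3 cells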;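 further: first round at 10 µM; read as green reporter fluorescence; hits show the peak of a series up to 25 µM; 1 = signal of infected wells without compound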
PKD1 kinase inh = PKD1 (human) kinase inhibition | 200,000 tested, 0.056% active | Q15139 | PKD1 kinase fluorescence polarization assay | inhibition, %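 (about 10 µM by stock and volumes)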 | AID 797;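 active means inhibition of 50% or more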;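 further: controls were vehicle for no effect and a reference inhibitor for full effect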
Target sequence (Q15139 whole entry, looked up): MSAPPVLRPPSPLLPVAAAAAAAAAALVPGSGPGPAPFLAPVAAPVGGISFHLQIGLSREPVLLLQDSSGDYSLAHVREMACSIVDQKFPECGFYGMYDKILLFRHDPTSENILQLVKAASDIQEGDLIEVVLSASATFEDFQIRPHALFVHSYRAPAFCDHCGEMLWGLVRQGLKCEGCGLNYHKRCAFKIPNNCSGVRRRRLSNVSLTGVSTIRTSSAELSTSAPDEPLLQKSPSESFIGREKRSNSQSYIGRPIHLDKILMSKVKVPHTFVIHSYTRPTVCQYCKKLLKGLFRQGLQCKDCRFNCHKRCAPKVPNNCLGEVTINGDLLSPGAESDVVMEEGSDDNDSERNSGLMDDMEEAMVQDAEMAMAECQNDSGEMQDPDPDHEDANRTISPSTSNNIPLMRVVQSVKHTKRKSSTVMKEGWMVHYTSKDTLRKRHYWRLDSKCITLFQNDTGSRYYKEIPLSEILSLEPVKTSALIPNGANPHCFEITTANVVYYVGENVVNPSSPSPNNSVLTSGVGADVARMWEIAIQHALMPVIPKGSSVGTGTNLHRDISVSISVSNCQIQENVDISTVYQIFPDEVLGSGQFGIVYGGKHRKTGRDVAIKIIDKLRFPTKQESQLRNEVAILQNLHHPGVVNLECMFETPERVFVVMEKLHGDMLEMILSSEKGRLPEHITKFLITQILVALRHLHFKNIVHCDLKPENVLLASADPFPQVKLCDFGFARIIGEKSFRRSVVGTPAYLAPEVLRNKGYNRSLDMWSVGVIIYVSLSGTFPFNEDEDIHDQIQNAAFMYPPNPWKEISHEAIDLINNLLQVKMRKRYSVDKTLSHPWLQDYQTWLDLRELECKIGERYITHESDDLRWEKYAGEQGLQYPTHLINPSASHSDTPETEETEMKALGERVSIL
INS promoter inh = TRM-6 insulin promoter activity inhibition; TRM-6 cells (human fetal islet line), insulin promoter-eGFP reporter, imaging; reporter expression induced with tamoxifen; inhibition, % at 2 µM; 130,000 tested, 0.9% active;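 active means inhibition above the mean plus 3 SD, with well images judged a real hit on visual review, cut at about 60% in these data, passing the limit was not always enough; inconclusive means inhibition over the cutoff but images rejected on review; inactive means inhibition not above the cutoff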
RGS16-Gao HTS = RGS16-Galphao interaction regulator (human) | binding response (% of control), % at 10 µM | 220,000 tested, 0.38% active | bead-based flow cytometry RGS16-Galphao binding, fluorescence; actives lie on both sides | O15492+P09471 | AID 1441;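 active means below 25% or above 175%, edge rows of some plates excepted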;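 further: Galphao activated by GDP with aluminum fluoride before binding; 100% = wells without compound and 0% = beads without RGS; some results beyond the cut were filed as inactive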
INS promoter inh cell count = also measured in INS promoter inh; calls as there; normalized cell count, %; measured here: cell count, toxicity; reference of the scale not given here;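 cells exposed to compound for 48 h; stained nuclei by imaging scaled within each plate; lower means fewer cells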
HSV augment primary fold = recorded beside HSV augment, whose call it bears; fold increase; compound at 10 µM; measured here: primary screen fold increase 10 uM; tested in PC3 cells;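 GFP signal in the first replicate; 1 = infected wells without compound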
* = called active by the depositor; i = inactive; ? = inconclusive; · = not tested or not shown.

SMILES	GALR2 agonist	HSV augment	HSV augment primary fold	PKD1 kinase inh	INS promoter inh	INS promoter inh cell count	RGS16-Gao HTS
CCNc1ccc(C(=O)OCC(=O)NCCN2C(=O)CSC2=O)cc1[N+](=O)[O-]	·	i	0.86	-5	·	·	105
CCc1cccc(CC)c1NC(=O)CSc1nc2ccc(N3C(=O)C4C5C=CC(C5)C4C3=O)cc2s1 (centres undefined)	-0.6	i	0.93	-2	-32	62	102
COc1ccccc1-c1nnc2sc(COc3ccc(Cl)cc3Cl)nn12	-1.4	i	0.71	3	18	109	101
Cc1cc(C)c2c(N)c(C(=O)Nc3nccs3)sc2n1	-1.0	i	0.92	0	33	95	97
CCOC(=O)c1cnn(-c2ccccc2)c1NC(=O)c1ccccc1C	-1.0	i	0.81	0	5	79	95
COCCN(C(=O)Nc1ccc(OC)cc1OC)C1CCN(C(C)C)CC1	-1.3	i	0.78	-22	6	99	103
CCOC(=O)N1CCN(Cc2nc3c(c(=O)n(C)c(=O)n3C)n2CCCc2ccccc2)CC1	-1.1	i	0.79	-6	·	·	103
CC(C)C(=O)NC(c1cccc([N+](=O)[O-])c1)c1c(O)ccc2ccccc12 (centres undefined)	·	i	0.87	-9	·	·	102
CC(C)=CCc1c(O)c(CC=C(C)C)c2occ(-c3ccc(O)cc3)c(=O)c2c1O	·	i	0.74	·	·	·	96
O=C(Nc1c(C(=O)N2CCOCC2)cnn1-c1ccccc1)c1ccccc1	-1.6	i	0.82	-1	-33	87	107
COc1ccccc1N1C(=O)C2CC=CC(C)C2C1=O (centres undefined)	-1.7	i	0.87	-3	38	108	111
CSC(=O)CC(=O)NC(=O)c1ccccc1	-0.8	i	0.78	-4	-50	61	106
CC(=O)NN1C(=O)/C(=C\c2ccc(Br)o2)SC1=S	-1.8	i	1	-17	-64	43	81
CSc1ccc(/C=N/NC(=O)c2ccccc2Cl)cc1	·	i	1	9	·	·	103
Cc1nc(-c2cccc(-c3noc(C)n3)c2)no1	-1.3	i	0.81	-2	-6	89	97
COC(=O)c1cc2ccsc2n1CC(=O)NCC1CCCO1 (centres undefined)	-0.3	i	0.93	-5	·	·	82
Cn1nc(C(=O)OCCN2C(=O)c3ccccc3C2=O)c2ccccc2c1=O	-3.8	i	0.89	-1	-3	54	99
Cc1ccc(O)c(C(=O)c2cc(C#N)c(=O)n(-c3c(C)n(C)n(-c4ccccc4)c3=O)c2)c1	-2.4	i	1.2	-1	-31	157	97
Cc1ccc(S(=O)(=O)N2CCN(C(=O)CSc3nccn3C)CC2)cc1	·	i	1.1	·	·	·	93
CCCCn1c(CNC(=O)c2cccs2)nc2ccccc21	-1.7	i	0.99	-11	·	·	99
Nc1ccc[n+](Cc2ccccn2)c1	-1.0	i	0.95	-3	-66	94	100
O=C(COC(=O)C1(c2ccc(F)cc2)CCCC1)N1CCOCC1	-1.7	i	0.85	0	·	·	218
O=C(CN(c1ccccc1)S(=O)(=O)c1ccccc1)NCCSCc1ccco1	-2.5	i	1.1	5	-46	90	82
CCCCCn1c(CN2CCN(C(=O)OCC)CC2)nc2c1c(=O)n(C)c(=O)n2C	-4.0	i	0.83	-2	10	115	·
Cc1ccc(CN2CCN(CC(=O)N=Nc3c(O)[nH]c4ccccc34)CC2)cc1	-0.1	i	0.98	15	·	·	109
COCCNC(=O)c1ccccc1NC(=O)c1ccc(Cl)c(S(=O)(=O)Nc2ccc(C)cc2C)c1	-2.4	i	0.88	-14	-29	99	115
COC(=O)[C@H](CCSC)NC(=O)NCc1cccs1	-2.1	i	1	-15	-14	111	101
COc1ccc(C(=O)COC(=O)C(C(C)C)N2C(=O)C3C4C=CC(C4)C3C2=O)cc1 (centres undefined)	-0.7	i	1	0	19	98	-27
CCOc1cc(N2CCOCC2)c(OCC)cc1NC(=O)C1=NN(c2cccc(C)c2)C(=O)CC1	·	i	0.87	-4	0	136	106
O=C(CNC(=O)c1cccc(OC(F)F)c1)OCc1cc(=O)n2cc(Br)ccc2n1	-2.7	i	0.98	-9	·	·	98

Compounds from the list above that contain a thiophene ring, fused or not, in the order listed:
SMILES	GALR2 agonist	HSV augment	HSV augment primary fold	PKD1 kinase inh	INS promoter inh	INS promoter inh cell count	RGS16-Gao HTS
Cc1cc(C)c2c(N)c(C(=O)Nc3nccs3)sc2n1	-1.0	i	0.92	0	33	95	97
COC(=O)c1cc2ccsc2n1CC(=O)NCC1CCCO1 (centres undefined)	-0.3	i	0.93	-5	·	·	82
CCCCn1c(CNC(=O)c2cccs2)nc2ccccc21	-1.7	i	0.99	-11	·	·	99
COC(=O)[C@H](CCSC)NC(=O)NCc1cccs1	-2.1	i	1	-15	-14	111	101

More results follow:
SMILES	GALR2 agonist	HSV augment	HSV augment primary fold	PKD1 kinase inh	INS promoter inh	INS promoter inh cell count	RGS16-Gao HTS
CCc1nnc(NC(=O)C2CCCN2C(=O)Nc2ccccc2OC)s1 (centres undefined)	-1.2	i	0.83	7	-7	140	109
Cc1ccc(S(=O)(=O)n2cc(C=O)c3ccccc32)cc1	·	i	1.2	·	·	·	99
O=c1[nH]cc(S(=O)(=O)c2ccccc2)[nH]1	·	i	1	4	·	·	101
CCCC(=O)C1=C(N2CCCCC2)CC(C)(C)C(C(=O)OC)C1=O (centres undefined)	·	i	0.77	-4	·	·	106
O=C(Nc1ccc(Cl)cc1)[C@@H]1[C@@H]2C(=O)N(c3cccc(F)c3)C(=O)[C@@H]2[C@H]2C=CC=NN21	·	i	1	·	·	·	95
O=C(CN1CCNC(=O)C1)NCCc1ccc(Cl)cc1Cl	·	i	1.1	-6	·	·	95
CC(=O)c1cccc(NC(=O)c2cc3ccccn3n2)c1	-2.2	·	·	10	·	·	98
COc1ccccc1-[n+]1c(C)cc(/C=C2\Sc3ccccc3N2C)cc1C	·	?	·	·	·	·	100
Cc1nc(N)[nH]c(=O)c1CCC(=O)OCC(C)C	-2.7	i	0.9	-1	10	123	104
O=C(NCC1CCN(S(=O)(=O)c2ccccc2)CC1)Nc1ccccc1	·	i	1	·	·	·	96
Nn1c(-c2ccc(O)cc2)nnc1-c1ccc(O)cc1	·	i	0.93	·	·	·	105
COCCn1c(=NC(=O)CSCC(=O)Nc2cc(C)on2)sc2cc(C(=O)OC)ccc21	-2.6	i	1	-16	-22	86	98
COc1cc(NC(=O)c2ccc(OC)c([N+](=O)[O-])c2)ccc1NC(=O)c1ccco1	·	i	0.83	·	·	·	98
Cc1nc2ccc(NC(=O)c3ccc(Cl)c([N+](=O)[O-])c3)cc2s1	0.2	i	0.9	-3	·	·	99
CCCC(=O)C1=C(O)C(C(=O)OC)C(C)(C)CC1=Nc1ccncc1 (centres undefined)	-1.4	i	0.87	-1	-30	114	105

Single records (already shown).
`COc1cc(NC(=O)c2ccc(OC)c([N+](=O)[O-])c2)ccc1NC(=O)c1ccco1` across the screens: GALR2 agonist: ·; HSV augment: i; HSV augment primary fold: 0.83; PKD1 kinase inh: ·; INS promoter inh: ·; INS promoter inh cell count: ·; RGS16-Gao HTS: 98
`O=C(Nc1ccc(Cl)cc1)[C@@H]1[C@@H]2C(=O)N(c3cccc(F)c3)C(=O)[C@@H]2[C@H]2C=CC=NN21` across the screens: GALR2 agonist: ·; HSV augment: i; HSV augment primary fold: 1; PKD1 kinase inh: ·; INS promoter inh: ·; INS promoter inh cell count: ·; RGS16-Gao HTS: 95

Following part
SMILES	GALR2 agonist	HSV augment	HSV augment primary fold	PKD1 kinase inh	INS promoter inh	INS promoter inh cell count	RGS16-Gao HTS
CC(C(=O)Nc1ccccc1C(=O)N1CCOCC1)N(c1ccccc1)S(C)(=O)=O (centres undefined)	-1.8	i	0.91	-4	-289	88	100
O=C(NCc1ccc(C(F)(F)F)cc1)C1CC(c2c(Cl)cccc2Cl)=NO1 (centres undefined)	0.9	i	0.9	10	27	129	101
COc1ccc(S(=O)(=O)NNC(=O)c2csc(-n3nc(C)cc3C(F)(F)F)n2)cc1	-0.5	i	1	-7	-11	59	100
Cc1cccc(N2CCN(C(=O)N3CCOCC3)CC2)c1C	·	i	0.75	-7	-62	66	104
CSc1nc2sc3c(c2c(=O)[nH]1)CCc1ccccc1-3	1.1	i	0.97	4	4	119	103
COc1ccccc1C(=O)NNC(=O)c1cccc(Cl)c1	·	i	0.91	5	·	·	111
O=C(/C=C/c1cn(CC(O)CN2CCCCC2)c2ccccc12)c1ccccc1 (centres undefined)	·	i	0.79	·	·	·	100
CCCN1Cc2cccc(C(N)=O)c2C1=O	0.9	i	0.95	-4	·	·	103
O=C(NCc1ccccn1)c1cn(CCc2ccccc2)nn1	-1.3	i	0.99	-9	-15	53	101
N[C@@H]1CONC1=O	·	i	0.83	·	·	·	103
S=c1[nH]nc(-c2ccco2)n1/N=C/c1ccc(Cl)cc1Cl	0.5	i	0.59	7	8	87	91
COC(CNc1ccc([N+](=O)[O-])c(NCC(OC)OC)c1C#N)OC	·	i	1.1	·	·	·	101
O=C(CSc1ncccn1)N1CCC(Cc2ccccc2)CC1	·	i	0.85	1	·	·	102
C=CCNC(=S)NCC1COc2ccccc2O1 (centres undefined)	-0.4	i	0.99	14	-21	103	100
CCCOc1ccc(C(=O)NCC(C)(C)N2CCOCC2)cc1	·	i	0.96	-3	0	81	112
Cn1cc([N+](=O)[O-])c(C(=O)N/N=C/c2ccccc2)n1	-1.2	i	1.2	-7	·	·	126
O=C(O)c1ccc(OCC(O)Cn2c3ccccc3c3ccccc32)cc1 (centres undefined)	·	i	1.1	·	·	·	101
O=C(CCn1c(=O)c2sccc2n(Cc2cc(=O)n3ccccc3n2)c1=O)NCc1ccco1	-1.6	i	1	3	·	·	106
Cc1cc(C)nc(SCCC(=O)Nc2ccc(F)cc2)n1	·	i	0.9	-5	-50	157	153
Cn1c(SC/C=C/c2ccccc2)nnc1-c1cnccn1	0.4	i	0.99	-10	43	91	103
NC(=O)C1CCN(c2nc(-c3ccccc3)nc3c2oc2ccccc23)CC1	-0.9	i	0.94	-10	-14	97	100
CN1C(=O)CSC1=NC12CC3CC(CC(C3)C1)C2	-1.1	i	0.88	2	-6	109	100
COC(=O)c1c(NC(=O)CN2CCN(c3ccccc3OC)CC2)c2c(C)cccc2n1C	0.0	i	0.97	-1	·	·	104
CC1=C(C(=O)OCc2ccc3c(c2)OCO3)C(c2ccccc2)NC(=O)N1 (centres undefined)	-0.4	i	0.56	-1	·	·	104
CCCCOc1ccc(-c2ncc([N+](=O)[O-])cn2)cc1	·	i	1.2	·	·	·	88
COCCNc1c(-c2ccc(O)cc2)nc2ccc(Cl)cn12	-0.3	i	1	0	19	50	104
CCC(=O)N1c2ccccc2[C@@H](N(C(C)=O)c2ccccc2)C[C@H]1C	-0.2	i	0.94	-4	-27	74	106
CC(=O)Nc1ccc2c(CSc3nnc(-c4cccnc4)n3-c3ccc(C)cc3C)cc(=O)oc2c1	-0.1	i	0.9	-4	-12	145	107
COc1ccc(CCNC(=S)Nc2cccc(C)c2)cc1	-1.1	i	0.78	1	-31	149	96
CCOC(=O)N1CCC(N2Cc3cccc(C(=O)Nc4ccc(OC)c(OC)c4)c3C2=O)CC1	-1.0	i	0.94	-8	·	·	50
CCC(C)[C@H](NC(=O)N1CCCC1)C(=O)O (some centres undefined)	-0.6	i	0.85	-10	29	107	147
C=CCn1c(=O)c(C(=O)NCCNCC)c(O)c2ccccc21	-0.7	i	1	0	-50	71	109
COc1ccccc1-n1nnnc1SCC(=O)Nc1ccccn1	-2.5	i	0.8	-3	14	21	99
CC(=O)Nc1ccc(Nc2ccc3nonc3c2[N+](=O)[O-])cc1	·	i	1	-3	42	148	102
COc1cc2c(cc1OC)CN(C(=O)CCCN1C(=O)c3ccccc3C1=O)CC2	0.2	i	1	-8	·	·	-155
COc1ccc(N2CCN(C(=O)Cn3c(=O)[nH]c4ccccc4c3=O)CC2)cc1	·	i	0.96	-3	·	·	102
CCOC(=O)/C(C#N)=C/c1ccc(OC(=O)c2ccco2)c(OCC)c1	-0.1	i	1	-3	·	·	100
CCCC[n+]1ccn(-c2nc3ccccc3nc2[N-]S(=O)(=O)c2ccc(C)cc2)c1	1.4	i	0.95	0	-25	166	107
C=CCN1C(c2ccccc2)=CS/C1=C(\C#N)c1nnc2n1CCCCC2	-1.1	i	0.88	-2	·	·	100
Cc1ccc(NC(=O)CSc2ccc(-c3ccccn3)nn2)cc1	·	i	0.93	-1	·	·	101
Cc1ccc([N+](=O)[O-])cc1N=C(c1ccc([N+](=O)[O-])cc1)N1CCOCC1	1.3	i	1	1	17	145	104
Cc1ccccc1NC(=O)c1cc(N)ccc1N1CCCCC1	-3.9	i	1.1	4	-5	71	101
Cn1c(=O)cc(SCC(=O)N2CCCC2)c2cc(Cl)ccc21	-1.1	i	0.96	-4	·	·	103
CC(C)C(NC(=O)OCc1ccccc1)C(=O)OCC(=O)N1C(C)CCCC1C (centres undefined)	-1.3	i	0.99	-7	-35	100	106
CCCc1nc2ccccc2n1C(=S)SC	·	i	0.92	-3	·	·	90
